# From PubChem BioAssay
# YjeE inh: displaces an ADP probe from E. coli YjeE (TsaE) | purified YjeE, fluorescence polarisation of a bound ADP probe | 0.05% of 71,000 active | AID 605 | Potency, µM; active = well fitted falling curve; inconclusive = weaker or top-dose-only fall, or a rising curve; inactive = flat or poorly fitted curve;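 note: top concentration of the series not given in the record; excess ADP was the control for the full effect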
#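 Fluorescence polarization of a BODIPY Texas Red–ADP probe (2 uM) bound to purified YjeE (10 uM) was read after 15 min room-temperature incubation with compounds. Loss of polarization marks inhibitors; ADP serves as titrated control.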
# PK Bst: pyruvate kinase (B. stearothermophilus) modulation; partly purified Bacillus stearothermophilus pyruvate kinase, luminescence ATP production; ribose 5-phosphate activator present at AC10; Potency, µM; 1.2% of 51,000 active; AID 361; in the data active means potency below about 11 µM; inconclusive means mostly about 12 µM to 25 µM; inactive means weaker than that;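 the screen sought inhibitors and activators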;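 note: potency is the fitted concentration of half-maximal effect; scaled between full activation by ribose 5 phosphate and full inhibition by luteolin; about four in five hits inhibit and the cells do not say which; series up to 57 µM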
# Numbers without * were called inactive; i = inactive; ? = inconclusive; nt = no result given. An excerpt, so the mix of outcomes need not match the whole.
SMILES,YjeE inh,PK Bst
COC(=O)c1ccc(C2/C(=C(/O)c3ccc(OC(C)C)cc3)C(=O)C(=O)N2c2cc(C)on2)cc1 (centres undefined),i,>57
Cn1c(C(=O)N2CCN(c3ccccc3F)CC2)cc2c(=O)n(C)c3ccccc3c21,i,nt
COc1ccc2cc(C(=O)NCc3ccco3)c(=Nc3ccc(C(=O)O)cc3)oc2c1,i,nt
COc1ccc(C2/C(=C(/O)c3ccc4c(c3)CC(C)O4)C(=O)C(=O)N2CCN2CCOCC2)cc1 (centres undefined),i,>57
O=C(CS(=O)(=O)Cc1ccccc1)NCc1ccc2c(c1)OCO2,i,>57
COc1ccc(-c2ccc(-c3noc(C4CCCCC4)n3)c(OC)n2)cc1,i,>57
O=C(O)c1ccccc1C(=O)N1CCN(c2cccc(Cl)c2)CC1,i,>11.4
COCCCNC(=O)c1ccc2nc3ccccc3c(=O)n2c1,i,nt
O=C(Nc1ccc2c(c1)OCO2)C1CCCN1C(=O)Nc1cccc(F)c1 (centres undefined),i,>57
O=C(Nc1ccccc1)N1CCCC2(CCN(C(=O)c3csnn3)CC2)C1,i,nt
Cc1ccc(OCC(O)Cn2c(=N)n(CCN3CCOCC3)c3ccccc32)cc1 (centres undefined),i,>57
CCN(CC)C(=O)CSC(=Nc1ccccc1F)NC#N,i,>57
COc1cc(/C=C/C(=O)CC(=O)/C=C/c2ccc(O)c(OC)c2)ccc1O,i,nt
CN(C(=O)c1ccc(NC(=O)c2cnccn2)cc1)C1CCCCC1,i,>57
CN(Cc1ccccc1)C(=O)CCNC(=O)Cn1cnc2ccccc2c1=O,i,>57
COc1ccc(C)cc1NC(=O)CN(c1ccc(F)cc1)S(C)(=O)=O,i,nt
COc1ccc(-n2nnnc2SCC(=O)N2CCCC2)cc1OC,i,>57
O=C(c1cnccn1)N1CCC2(CCN(Cc3cc(C(F)(F)F)cc(C(F)(F)F)c3)CC2)CC1,i,nt
CC(=O)/C=C(\C)NCCNc1c(F)c(F)c(CO)c(F)c1F,nt,>25.6
CCc1cc2c(=O)c(-c3nc4ccccc4n3C)c(C)oc2c(CN2CCN(C)CC2)c1O,i,>57
Cc1ccc(S(=O)(=O)N[C@@H](CC(C)C)C(=O)NCc2ccco2)cc1,i,>57
CSC(=NC1CCCCC1)NS(=O)(=O)c1ccccc1,i,>57
CSc1nc(N)nc(SCC(=O)CC(=O)OC(C)C)c1C#N,nt,i
O=C(CSc1nnc(CN2CCOCC2)n1-c1ccc(Cl)cc1)Nc1cc(Cl)ccc1O,i,>57

# Filtered by structure: the entries above with fluorine
SMILES,YjeE inh,PK Bst
Cn1c(C(=O)N2CCN(c3ccccc3F)CC2)cc2c(=O)n(C)c3ccccc3c21,i,nt
O=C(Nc1ccc2c(c1)OCO2)C1CCCN1C(=O)Nc1cccc(F)c1 (centres undefined),i,>57
CCN(CC)C(=O)CSC(=Nc1ccccc1F)NC#N,i,>57
COc1ccc(C)cc1NC(=O)CN(c1ccc(F)cc1)S(C)(=O)=O,i,nt
O=C(c1cnccn1)N1CCC2(CCN(Cc3cc(C(F)(F)F)cc(C(F)(F)F)c3)CC2)CC1,i,nt
CC(=O)/C=C(\C)NCCNc1c(F)c(F)c(CO)c(F)c1F,nt,>25.6

# (next part)
SMILES,YjeE inh,PK Bst
CCN1C(=O)c2cccc3cccc1c23,i,>57
Cc1ccc(C)c(NC(=O)C2CC(Cl)=CCC2C(=O)O)c1 (centres undefined),i,>57
COC(=O)Cn1c(=NC(=O)CSC(C)=O)sc2ccccc21,i,nt
Cc1cc(C(=O)OCC(=O)N2CCOCC2)c2ccccc2n1,i,>57
N#CC1=C2SCC(O)(c3ccccc3)N2C(=O)CC1c1cccs1 (centres undefined),i,>57
COC(=O)COC(=O)c1ccc(O)cc1,i,nt
CCCCn1c(NCc2ccccn2)nc2ccccc21,i,>57
O=C(Nc1cccnc1)C1(c2ccccc2)CCCC1,i,>57
COCCn1c(=O)c(-c2ccc(Cl)cc2)nc2cnc(Oc3cccc(Cl)c3)nc21,i,nt
Cc1nc2cnc(Nc3ccccc3)nc2n(C)c1=O,i,nt
CN(C)C(=O)c1ccccc1-c1ccccc1,i,>57
C=CCN1CCN(C(c2ccccc2)c2nnnn2CCC(C)C)CC1 (centres undefined),i,>57
COc1cccc(CNC(=O)C2CCCN(c3nn4c(=O)cc(C)nc4s3)C2)c1 (centres undefined),i,>57
O=c1[nH]c(=O)c2nc3ccccc3nc2[nH]1,i,nt
CCn1c(CCC(=O)Nc2cc(F)ccc2C)nc2cc(S(=O)(=O)N(C)C)ccc21,i,>57
CCCc1ccc(S(=O)(=O)NCCc2ccncc2)cc1,i,>57
COc1ccc(N2CCN(C(=O)CN(c3cccc(Br)c3)S(C)(=O)=O)CC2)cc1,i,nt
COC(=O)c1ccc(CSc2nnc(Nc3ccccc3OC)s2)o1,i,>57
CC(C)c1ccc2oc(-c3ccc(NC(=O)c4ncn[nH]4)cc3)nc2c1,i,i
COc1ccc(C(=O)Nc2ncc3c(n2)CC(c2ccco2)CC3=O)cc1 (centres undefined),i,>57
CC(C)C(C(=O)Nc1nccs1)c1ccccc1 (centres undefined),i,>57
CCn1c(=N)n(CC(=O)c2cccc(OC)c2)c2ccccc21,i,i
COc1ccc(N2CSC3=C(C#N)C(c4cccs4)CC(=O)N3C2)cc1 (centres undefined),i,>57
CCN(CC)S(=O)(=O)c1ccc(Cl)c(C(=O)NCC2CCCO2)c1 (centres undefined),i,>57
COc1ccc(CSc2nnc(C)n2N)cc1Br,nt,>25.6
CCn1c(=O)cc(OCC(=O)N2CCN(c3cccc(C(F)(F)F)c3)CC2)c2ccccc21,i,>57
O=S(=O)(c1ccccc1)N1CCC2(CC1)CN(Cc1ccccc1)C2,i,nt
CCCCCOC(=O)c1ccccc1C(=O)O,i,>57
CCCCN(CC)Cc1ccc(CNC(=O)Nc2ccc(OC)cc2OC)o1,i,>57
COC(=O)c1ccccc1NC(=O)COc1ccccc1,i,nt
COc1ccc(CC(=O)N2CCN(c3ccccn3)CC2)cc1,i,>57
CCCC(=O)C1C(=O)CC(C)(C)C(c2cc(C)no2)C1=O (centres undefined),i,nt
C=CCNC(=O)C1CC(=O)N(c2ccc(C)cc2)C1 (centres undefined),i,nt
COc1ccc(CNc2cc(-c3ccoc3)ncn2)c(OC)c1,i,nt
Cc1[nH]nc2c1C(c1ccccc1F)NC2=O (centres undefined),i,nt
COCc1nnc(NC(=O)c2ccc(S(=O)(=O)N(C)C3CCCCC3)cc2)o1,i,>57
CSc1nncc(-c2ccc(F)cc2)n1,i,?
CCCCOc1ccc(-c2nnn(C(C)(C)C(=O)OC)n2)cc1,i,>57
CCOC(=O)CCc1c(C)c(C#N)c2[nH]c3ccccc3n2c1=O,nt,i
CCOc1ccccc1C1N(c2ccc(F)cc2)C(=O)C2CCCN21 (centres undefined),i,>57
COc1ccc(OC)c(S(=O)(=O)N2CCC(C(=O)N3CCc4ccccc4C3)CC2)c1,i,>57
Cc1ccccc1Cc1c(C)nc2c(C(=O)N3CCN(Cc4ccc5c(c4)OCO5)CC3)cnn2c1C,i,>57
CC1CCCCC12NC(=O)N(CC(=O)c1ccc[nH]1)C2=O (centres undefined),i,>57
Cc1cccc(-c2nnc3n2N=C(c2ccccc2Br)CS3)c1,i,?
O=C(Cn1cnc2c(oc3ccccc32)c1=O)NCc1ccco1,i,>57
CCOC(=O)c1ccc(S(=O)(=O)Nc2ccccc2-c2nnn(CC)n2)cc1,i,>57
CC(=O)Nc1nnc(Cc2ccccc2)s1,i,>57
COCC(=O)N1CCC[C@@]2(CCN(C(=O)Nc3ccccc3)C2)C1,i,nt

# Some of the entries so far, as tab-separated lines.
Molecule	YjeE inh	PK Bst
Cc1cccc(-c2nnc3n2N=C(c2ccccc2Br)CS3)c1	i	?
O=C(Cn1cnc2c(oc3ccccc32)c1=O)NCc1ccco1	i	>57
CCOC(=O)c1ccc(S(=O)(=O)Nc2ccccc2-c2nnn(CC)n2)cc1	i	>57
CC(=O)Nc1nnc(Cc2ccccc2)s1	i	>57

# Continuation.
SMILES,YjeE inh,PK Bst
Cc1nnc(SCCn2c(N3CCN(C)CC3)nc3c2c(=O)n(C)c(=O)n3C)s1,i,>57
N=C1C(c2nc3ccccc3s2)=C(O)CN1CCCO,i,nt
CCCS(=O)(=O)N1CCC(C(=O)NCc2ccco2)CC1,i,>57
CCCCCNC(=O)CCn1c(=O)oc2ccccc21,i,>57
CC(C)(C)Sc1nc(O)cc(=O)[nH]1,i,>57
O=C(CCC1CCCC1)N1CCN(C2CCCC2)CC1,i,>57
O=C(COc1ccc(-c2nnc(N3CCCCC3)c3ccccc23)cc1)N1CCCCC1,nt,>25.6
COC(=O)c1sc2nc(N3CCCCC3)c3c(c2c1N)CC(C)(C)N(C)C3,nt,>25.6
Cc1cc(OCc2nn[nH]n2)c2c(-c3ccccc3)cc(=O)oc2c1,i,>57
NC(N)=NS(=O)(=O)c1ccc(N)cc1,i,>25.6
COc1ccccc1CNc1ncncc1-c1ccc(N(C)C)cc1,i,nt
O=C(c1cc2c(s1)CCCC2)N1CCN(Cc2ccc3c(c2)OCO3)CC1,i,>57
COCCn1c(=O)c(CCc2ccccc2)nc2cnc(Oc3ccccc3)nc21,i,nt
COc1cc2[nH]c(=S)n(CCCN3CCOCC3)c(=O)c2cc1OC,i,>57
COc1ccccc1N1CCN(Cc2cccc(OC)c2OC)CC1,i,nt
CN1CCN(Cc2ccc(OCc3ccccc3)cc2)CC1,i,nt
O=C(O)c1ccc(NC(=O)C2C3CCC(C3)C2C(=O)O)cc1 (centres undefined),i,nt
C[C@]1(C(=O)NCCN2CCOCC2)C=C[C@@H](Cc2ccccc2)N1C(=O)c1ccccc1,i,nt
c1ccc(Cc2nc(-c3ccccn3)no2)cc1,i,nt
CCC1SC2=NCCN2C1(O)c1ccc(Cl)cc1 (centres undefined),i,>57
COC(=O)CN1C(=O)C(O)(CC(=O)c2ccc(Cl)cc2)c2ccccc21 (centres undefined),i,nt
COc1cc(C(=O)N2CCN(C(=O)COc3ccc4ccccc4c3)CC2)cc(OC)c1OC,i,nt
O=C(Nc1c(C(=O)N2CCCCC2)cnn1-c1ccccc1)c1ccccc1,i,nt
CC1(C)CC(=O)C(C=NCc2ccccn2)=C(O)C1,i,nt
O=C1OCc2cc(NC(=O)C3CCCO3)ccc21 (centres undefined),i,>57
CC(C)(C)C1=Nn2c(nnc2-c2n[nH]c3c2CCC3)SC1,i,>57
O=C(Nc1ccccc1)N(O)c1ccc(Cl)cc1,i,?
COc1ccc(-n2c(C)cc(C(=O)COC(=O)Cn3cnc4ccccc43)c2C)cc1,?,>57
CC(C)(C)c1ccc(C(=O)CCCSC2=C(C#N)C(c3ccco3)C3=C(CCCC3=O)N2)cc1 (centres undefined),i,>57
O=C(CSc1nnc(-c2ccncc2)o1)Oc1ccccc1,i,>57
COc1ccccc1N1CCN(C(=O)c2cc3n(n2)C(C(F)(F)F)CC(c2ccco2)N3)CC1 (centres undefined),i,>57
Cc1cc(C(=O)O)cc(S(=O)(=O)N2CCOCC2)c1C,i,>57
CCc1nnc(NC(=O)CSc2nnc(COc3cccc(C)c3)o2)s1,i,>57
CCOc1ccc(-c2nnn(CC(=O)NCc3ccco3)n2)cc1,i,>57
CCSc1nc(N)c2c3c(sc2n1)CN(C)CC3,i,>57
CC(C)Cn1c(=O)c(C(=O)Nc2ccncc2)c(O)c2ccccc21,i,>57
C=CCN(c1ccccc1)S(=O)(=O)c1ccc2c(c1)oc(=O)n2C,i,nt
N=c1n(CC(=O)O)c2ccccc2n1Cc1ccccc1Cl,i,>57
CCn1c(SCC(=O)NCc2ccc(F)cc2)nc2c(c1=O)SC(C)C2 (centres undefined),i,nt
COCCn1c(=NC(=O)CSCC(=O)NC2CCCCC2)sc2cc(OC)ccc21,i,>57
CCN1C(=O)CC(C(=O)O)SC1=Nc1ccc(OC)cc1 (centres undefined),i,>57
CNc1ccccc1C(C)(C)c1cc(-c2ccco2)n[nH]1,i,?
O=C(CN1C(=O)CSc2ncccc21)N1CCOCC1,i,nt
CCOC(=O)c1c(C)n(C(=O)c2ccco2)c(=O)n1C(=O)c1ccco1,i,>57
O[C@]1(c2ccccc2)c2ccccc2NC2=NCCN21,i,nt
COc1cc(/C=N/n2c(SC)nnc(C(C)(C)C)c2=O)ccc1O,i,nt
CCC(=O)NC(Nc1cccc(C)n1)(C(F)(F)F)C(F)(F)F,i,>57
Cc1ccc(CNC(=O)CCc2c(C)nc3ncnn3c2C)cc1,i,>57
CCOC(=O)c1cnc(-n2nc(C)cc2C)nc1NC(C)c1ccccc1 (centres undefined),i,>57
Cc1ccc(=O)n(C(C(=O)NCc2ccco2)C(=O)c2ccc(F)cc2)c1 (centres undefined),i,>57
CN(C)Cc1ccccc1-c1cncnc1NCc1cccnc1,i,nt
Cc1cc(C)n(C2=NS(=O)(=O)c3ccccc32)n1,i,>57
CC(C)C(c1nnnn1Cc1cccs1)N1CCN(C2CCCC2)CC1 (centres undefined),i,>57
CC1CCN(C(=O)CN2C(=O)C(=O)c3ccccc32)CC1,i,nt
COc1ccccc1C(=O)N1CCN(c2nc3cc(C)c(C)cc3cc2C#N)CC1,i,>57
CC1(C)Cc2nc(N)c(=O)sc2C1,i,>57
O=C(CCCOc1ccc(Cl)cc1)N1CCCCC1,i,nt
CC(C)C(C(=O)NC(C)(C)C)N1C(=O)c2ccccc2C1=O (centres undefined),i,nt

# Shown with each value named: entries from further up.
> COc1ccccc1C(=O)N1CCN(c2nc3cc(C)c(C)cc3cc2C#N)CC1
  YjeE inh: i
  PK Bst: >57
> CC1(C)Cc2nc(N)c(=O)sc2C1
  YjeE inh: i
  PK Bst: >57
